gsp ag: gsp mutant agonism; gsp mutant cells, cAMP HTRF, 30 min; control for the full effect not named in the record; Potency, µM (highest dose often 76.9 µM), for inactives: at the highest dose activation (cAMP increase), usual class: activators; 340,000 tested, 0.13% active; AID 624287; active = well fitted activation curve with a large enough effect; inconclusive = small, poorly fitted or top-dose-only effect, or another doubt; inactive = no such curve, though single readings can be large or run the other way; cell line not stated here;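 note: phosphodiesterase inhibitor Ro 20-1724 added with compounds to block cAMP breakdown; potency is the fitted concentration of half-maximal effect; nearly all actives have a fitted effect of over 60% in size; about a fifth of the inactives were tested at one dose only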
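Cells in DMEM/10% FBS with G418 were pretreated with compounds in DMSO plus […] (300 uM stock) for 30 min at 37C. cAMP was measured by HTRF (cAMP-d2 plus anti-cAMP antibody-K) after 30 min at room temperature.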
ClpP mod: qHTS Assay for Activators of ClpP; ATP-dependent Clp protease proteolytic subunit (Bacillus subtilis (strain 168)), P80244; purified B. subtilis ClpP, FRET peptide cleavage, 20 min; Potency, µM (series often up to 57.5 µM), inactives show at the highest dose activity change, negative = active; 340,000 tested, 1.9% active; AID 651965, 2013; active = well fitted falling curve with a large enough effect; inconclusive = small, poorly fitted or top-dose-only effect; inactive = no such curve, though single readings can be large or run the other way; note: potency is the fitted concentration of half-maximal effect; the source files actives as falling curves though it sought activators and does not explain the sign; nearly all actives have a fitted effect of over 65% in size; many hits overshoot -100%
Target sequence (P80244 whole entry, looked up): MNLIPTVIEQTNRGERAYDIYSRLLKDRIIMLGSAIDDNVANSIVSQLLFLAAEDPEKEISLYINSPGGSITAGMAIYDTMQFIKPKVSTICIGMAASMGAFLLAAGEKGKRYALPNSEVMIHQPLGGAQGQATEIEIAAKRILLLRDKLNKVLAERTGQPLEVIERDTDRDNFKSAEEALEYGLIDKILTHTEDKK
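FRET quenching reversal measured ClpP activation: 10 microg/mL B. subtilis ClpP at pH 8 with the FRET-FV decapeptide, read at 430 nm after 320 nm excitation. The 20-min minus 0-min signal was scaled between DMSO/no-enzyme wells and ADEP (5.8 microM final).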
gsp antag: antagonizes gsp, the McCune-Albright syndrome mutation; AID 624288; 340,000 tested, 0.4% active; Potency, µM (titrated, usually from 76.9 µM), for inactives: at the highest dose activity change, negative = inhibition, hits mostly inhibitors; gsp-mutant cells, cAMP HTRF, 30 min; control for the full effect not named in the record; active = falling curve of any shape with a large fitted effect; inconclusive = falling curve, mostly with a smaller effect; inactive = flat or rising curve; cell line not stated here;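 note: intracellular cAMP measured with PDE inhibitor Ro 20-1724 present during compound exposure; potency is the fitted concentration of half-maximal effect; % is set by controls: 0 for no effect and ±100 for the full control effect; nearly all actives have a fitted effect of over 65% in size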
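Measurement of cellular cAMP by homogeneous time-resolved fluorescence following a 30 min compound exposure at 37C. The PDE inhibitor […] was present throughout; the assay buffer was DPBS with 0.05% BSA and 0.005% Tween 20.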
TRPML1 inh: blocks the human TRPML1 channel; Q9GZU1; TRPML1-inducible cells, Ca2+ dye fluorescence, FDSS; active compounds read low; inhibition of EC80 agonist-evoked calcium signal; activity change, negative = inhibition, % (no concentration beside the values); 390,000 tested, 0.02% active; AID 624415; in the data active means activity change below about -50%; inconclusive means about -30% to -50%; inactive means above about -30%;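 note: stimulus is agonist 54-4 at its EC80 concentration; % is set by controls: 0 for no effect and ±100 for the full control effect; compound concentration not given in the record; the text of the record puts the active cut at -80%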
Target sequence (Q9GZU1 whole entry, looked up): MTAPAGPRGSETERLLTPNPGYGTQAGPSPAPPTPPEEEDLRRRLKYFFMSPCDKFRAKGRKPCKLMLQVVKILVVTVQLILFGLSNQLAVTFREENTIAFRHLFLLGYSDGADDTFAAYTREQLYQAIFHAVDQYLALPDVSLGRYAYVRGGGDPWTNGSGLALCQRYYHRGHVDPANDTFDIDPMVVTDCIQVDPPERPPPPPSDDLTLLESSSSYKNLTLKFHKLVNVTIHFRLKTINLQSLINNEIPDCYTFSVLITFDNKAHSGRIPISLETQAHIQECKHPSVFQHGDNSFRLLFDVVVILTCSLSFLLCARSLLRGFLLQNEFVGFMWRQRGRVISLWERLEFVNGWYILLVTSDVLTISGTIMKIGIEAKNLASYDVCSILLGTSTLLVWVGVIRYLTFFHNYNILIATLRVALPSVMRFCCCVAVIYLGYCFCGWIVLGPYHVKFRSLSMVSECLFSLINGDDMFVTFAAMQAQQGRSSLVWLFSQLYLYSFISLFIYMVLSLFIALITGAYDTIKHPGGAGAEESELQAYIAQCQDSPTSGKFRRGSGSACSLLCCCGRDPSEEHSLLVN
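Calcium fluorescence in TRPML1-DL cells induced overnight with Tet: a 110 s read after compound pin addition, then a 110 s antagonist read after challenge with 54-4 at 4 uM final (EC80).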
Sfp inh: Sfp phosphopantetheinyl transferase inhibition | Biochemical Sfp PPTase activity, qHTS | Potency, µM, inactives show max response, negative = inhibition, most hits filed as inhibitors | 310,000 tested, 3.5% active | AID 1490; active = well fitted inhibition curve with a large enough effect; inconclusive = small, poorly fitted or top-dose-only effect, or another doubt; inactive = no such curve, though single readings can be large or run the other way;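 note: the enzyme is Sfp with the accession as filed and its product quenches rhodamine fluorescence; potency is the fitted concentration of half-maximal effect; 0% = enzyme reaction without inhibitor and -100% = no enzyme wells; top concentration of the series not given in the record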
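Step 1, compound plus 15 nM Sfp-PPTase, 15 min, room temperature. Step 2, add rhodamine-CoA (5 uM) and BHQ-2-YbbR (12.5 uM). Step 3, read 525/598 nm fluorescence at 0 and 30 min.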
Menin-MLL FL inh: displaces fluorescein MLL peptide from human menin | Fluorescence polarization, fluorescein-MLL peptide displacement from menin | FP activity change, % at 61.4 µM | 290,000 tested, under 10 active | AID 1766; inconclusive = falling polarisation curve, or a change in total fluorescence; inactive = total fluorescence flat and polarisation flat or rising; no compound was filed as active; the % refers to the polarisation; negative = inhibition;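 note: % of control where 0% means no effect; inhibitors lower the polarisation; unlabelled MLL peptide was the positive control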
TRPV1 potentiator: potentiators of human vanilloid receptor 1 (TRPV1). AID 540277. potentiation, % at 8.33 µM. TRPV1-expressing cells, Fluo-8 calcium influx, capsaicin EC20 potentiation; host cell line not named in the record; control for the full effect not named in the record. 320,000 tested, 0.02% active. Q8NER1; active means potentiation above 80%; inconclusive means 30% to 80%; inactive means below 30%; note: 0% is about no effect
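TRPV1-expressing cells were cultured overnight at 35.5C and loaded with Fluo-8 calcium dye for 40 to 90 min at room temperature. After a 10 s baseline, compound was added and calcium influx was read kinetically for 3 min (ex 480/em 520 nm).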
Starred values were filed as active, the others as inactive; ? = inconclusive; · = not tested or not shown; [ ] = another dose, or the depositor's remark.

molecule,gsp ag,ClpP mod,gsp antag,TRPML1 inh,Sfp inh,Menin-MLL FL inh,TRPV1 potentiator
O=[N+]([O-])c1ccc(N(CC2CO2)S(=O)(=O)c2ccccc2)cc1 (centres undefined),28%[15.4 µM],·,0%,26,6%,-0.8,2
COc1ccc(CNc2ccc3c(c2)nc(C)n3C)cc1OC,-18%,?,-14%,2,28%,3.6,1
Oc1ccc(-c2nc(-c3ccc(O)c(O)c3)cs2)cc1,-11%,-21%,5%,7,79µM*,-2.4,13
NS(=O)(=O)c1cc(C(=O)OCC(=O)NNC(=O)c2ccccc2)ccc1Cl,-19%,-0.7%,4%,-7,·,·,3
O=C(NNS(=O)(=O)c1ccccc1[N+](=O)[O-])c1ccccc1[N+](=O)[O-],25%,-3.7%,-10%,4,7%,2.9,6
COCCCNCCOCCOc1ccc(C)cc1Br,2%[15.4 µM],0.3%,10%,1,?,0.1,-5
O=C(Cc1cccs1)Nc1ccccc1,-45%[inhibitor],0.5%,5%,·,19%,0.1,0
COC(=O)/C=C1/C(=O)N/C(=N\c2nc(C)cc(C)n2)N1c1ccc(OC)cc1,2%[15.4 µM],·,-14%,8,-16%,1.0,3
Cc1ccc2nc(-c3ccc(F)cc3)nc(SCC(=O)NCC3CCCO3)c2c1 (centres undefined),6%,·,2%,0,0%,-2.3,4
O=C(NCc1ccco1)C1(S(=O)(=O)c2ccccc2)CC=CC1,·,2.1%,6%,3,8%,0.3,-7
CN1CCN(CCCNC(=O)c2nnc(Cc3c(F)cccc3Cl)o2)CC1,5%,-0.6%,2%,8,9%,-0.4,1
CN1CCN(NC(=O)Nc2ccc([N+](=O)[O-])cc2)CC1,-2%,-0.2%,2%,9,3%,·,-3
O=S(=O)(NCc1cccnc1)c1ccc2c(c1)OCCO2,-25%,0.4%,-9%,13,-3%,0.8,9
CCS(=O)(=O)N1CCN(C(=O)CC(C)C)CC1,-2%,0.4%,14%,-2,6%,2.3,4
Cc1ccc(OCC(=O)N(Cc2cccs2)C2CCS(=O)(=O)C2)cc1 (centres undefined),-12%[15.4 µM],·,8%,26,4%,0.2,21
O=C(Nc1ccc(S(=O)(=O)NCc2ccco2)cc1)C1CCCCC1,-13%[15.4 µM],·,19%,-4,-19%,3.9,4
CC(C)c1ccc[n+](-c2nc([O-])sc2C=O)c1,10%[15.4 µM],-2.3%,6%,-4,-27%,-13,1
CCNc1c(NS(=O)(=O)c2ccc(Cl)s2)c(=O)oc2ccccc12,4%,·,-8%,2,20%,-4.7,7
COc1cccc(OC)c1C(=O)Nc1ccc(CN2CCCCC2)cc1,0%,-1.2%,10%,3,21%,-1.4,19
CC(C)CCCN1C(N(C)C)=NC[C@@H]1C,?,0.3%,8%,9,·,·,?
COc1ccccc1/C=C/C=N/n1c(C)nnc1C,-15%[15.4 µM],·,·,10,0%,-2.0,1
CC(=O)N(C(C)=O)c1ccc2nc(C)[nH]c(=O)c2c1,-55%,-1.4%,5%,14,12%,-1.4,9
Oc1ccc2ccccc2c1/C=N/Nc1ccccc1,-6%,-3.7%,-5%,-2,-14%,-1.9,18
COc1cccc(NS(=O)(=O)c2cc(C)sc2C)c1,2%[15.4 µM],0.0%,-6%,5,9%,-3.3,2
CC(=O)c1ccc(C(=O)Nc2sc3c(c2C(N)=O)CCN(Cc2ccccc2)C3)cc1,·,·,·,·,8%,?,2
NC1=CC(=O)c2cccc3cccc1c23,·,·,·,·,3.5µM*,?,1
Cc1cccc(OCC(=O)N2CCc3ccccc3C2)c1,-1%[15.4 µM],-2.7%,-2%,-18,-3%,-5.5,-15
COc1cc(/C=C/C(=O)NCc2ccccn2)cc(OC)c1OC,?,25µM*,0%,7,-2%,5.5,-1
Clc1ccccc1CSc1nnc(/C=C/c2ccccc2)o1,10%,-28%,3%,8,0%,0.3,10
Cc1[nH]n(-c2cccc(Cl)c2)c(=O)c1C=NC12CN3CN(CN(C3)C1)C2,4%,?,0%,11,7%,6.6,-2
COc1ccc(S(=O)(=O)N2CCOCC2)cc1NC(=O)c1ccc(OCC(C)C)c(OC)c1,6%,-2.9%,-8%,1,·,·,-6
O=C(Cc1ccc(F)cc1)OCN1C(=O)c2ccccc2C1=O,0%,0.4%,13%,10,-13%,·,8
CS/C(N)=N/N=C/c1cc(Br)cc(Br)c1O,18%,-1.6%,0%,1,13%,1.5,6
CCOc1ccc(C(CCc2ccccc2)NC(=O)c2ccc(OC)c(OC)c2)cc1OCC (centres undefined),20%,-1.0%,-11%,-18,1%,-1.1,-2
C=CCOc1ccc(C2C(C(=O)c3ccco3)=C(O)C(=O)N2c2nnc(C)s2)cc1 (centres undefined),45%[15.4 µM],13%,-10%,5,7.1µM*,?,4
COc1ccccc1OCCC(=O)OCC(=O)c1c(N)n(C)c(=O)n(C)c1=O,5%[15.4 µM],·,13%,-8,6%,0.0,4
O=C(CN1CCCCC1)Nc1cccc([N+](=O)[O-])c1,9%,0.2%,14%,-7,-6%,0.9,10
O=C(NC1(C(F)(F)F)NC(=O)N(Cc2ccco2)C1=O)c1cccnc1 (centres undefined),8%,-3.1%,-1%,11,?,3.5,9
Cc1ccc(NC(=O)CN(C)C(=O)COC(=O)CNS(=O)(=O)c2ccc(Br)cc2Cl)cc1,-35%[inhibitor],?,-10%,-18,14%,·,8
CCN(CC(=O)Nc1ccc(N2CCOCC2)cc1)CC(=O)NC(C)(C)C,-34%[inhibitor],·,4%,1,11%,-4.1,5
COc1ccc(/C=N/NC(=O)CCc2c(C)n[nH]c2C)cc1OC,-43%[inhibitor],-3.0%,6%,2,-1%,6.0,-8
Cc1nnc(SCCn2c(N3CCCC(C)C3)nc3c2c(=O)n(C)c(=O)n3C)s1 (centres undefined),-16%,1.2%,2%,23,19%,0.5,10
COC(=O)/C(=C/Nc1ccc(O)cc1)[N+](=O)[O-],0%,1.5%,-23%,4,-20%,0.0,5
CCN(CC)Cc1cc2ccccc2c2c1COC2,-77%[inhibitor],-6.8%,0%,-2,7%,-1.5,10
O=C(COc1ncnc2scc(-c3ccc(F)cc3)c12)NCc1ccco1,0%,-0.7%,2%,-3,-19%,14,17
CC[N+](C)(CC)CCC/C(=N/O)C(O)(c1ccccc1)c1ccccc1,-8%[15.4 µM],·,0%,46,4%,4.4,3
COc1cccc(NC(=O)N2CCCC(C(=O)NCc3ccc(F)cc3)C2)c1 (centres undefined),-10%,-2.3%,-2%,-9,15%,6.6,-8
COc1ccc(C(NCC(=O)NC(C)c2ccc(Cl)cc2)c2ccccc2)cc1 (centres undefined),?,0.1%,6%,-1,?,-4.1,-27
CCN(CC)c1ccc(C(=C2C=CC(=[N+](CC)CC)C=C2)c2ccc(S(=O)(=O)O)cc2S(=O)(=O)[O-])cc1,-16%,0.1%,?,-1,·,·,·
COc1ccc(N(CC(=O)Nc2ccc3c(c2)OCO3)S(=O)(=O)c2ccc(F)cc2)cc1,1%,-2.5%,-12%,-14,3%,3.4,25
O=C(c1ccco1)N1CCN(C(=O)N2CCCC2)CC1,6%[15.4 µM],·,1%,-16,7%,2.2,9
O=C(C1CCCN(S(=O)(=O)c2ccccc2)C1)N1CCCCCC1 (centres undefined),-21%[15.4 µM],-1.8%,5%,9,6%,1.0,-7
Cc1nn(-c2ccccc2)c(C)c1NC(=O)COC(=O)Cc1ccccc1F,-14%,1.7%,7%,2,·,·,3
O=C(O)c1nnn(-c2cc(C(F)(F)F)cc(C(F)(F)F)c2)c1-c1ccccc1,0%[15.4 µM],-1.4%,-2%,-14,16%,-0.7,29
C/C(Cc1ccccc1)=N\NC(=O)CNC(=O)c1ccccc1,?,-1.4%,6%,28,4%,4.0,5
CC(=O)Nc1ccc(S(=O)(=O)NNC(=O)COc2ccc(C)cc2)cc1,7%,-0.8%,8%,-8,1%,3.8,-9

(next part)
molecule,gsp ag,ClpP mod,gsp antag,TRPML1 inh,Sfp inh,Menin-MLL FL inh,TRPV1 potentiator
O=C(Nc1ccc(Cl)cc1)OCc1cn(-c2ccccc2)nn1,17%[15.4 µM],·,11%,-16,7%,-1.6,?
CN1CCN(CC(=O)Nc2ccc(OCc3ccccc3)cc2)CC1,·,·,·,·,-12%,3.4,5
CC(=NNC(=S)N1CC2CCC(CC2)C1)c1ccccn1,-8%,-14%,·,-3,·,·,·
CC(c1ccccc1C(=O)O)c1cc(F)cc2ccccc12 (centres undefined),-40%[inhibitor],·,-15%,-10,·,·,·
CCOc1ccc(C(=O)/C=C/Nc2ccc(S(=O)(=O)N=C(N)N)cc2)cc1,19%,-4.3%,12%,16,10%,2.2,-2
CCC(C)[C@H](NC(=O)OC(C)(C)C)C(=O)NCC1CCC(C(=O)N[C@@H](Cc2ccccc2)C(=O)O)CC1 (some centres undefined),3%,-0.9%,10%,·,12%,1.9,-2
O=c1/c(=C/c2ccccc2)sc2nnc(-c3cccs3)n12,-7%[15.4 µM],·,5%,21,7%,1.0,24
CCCN(CC(=O)Nc1ccccc1OC)C(=O)c1ccc(=O)[nH]c1,17%[15.4 µM],·,12%,-3,24%,9.9,13
CC(C)=C1C2CCC1C1C(=O)N(NC(=O)COc3ccc(Cl)c(C)c3)C(=O)C21 (centres undefined),15%,-1.2%,-23%,-5,-5%,0.7,-8
Cc1cccc(N(CC(=O)Nc2ccc(-c3nc4ccc(C)cc4s3)cc2)S(C)(=O)=O)c1,0%,16µM*,-8%,-1,-1%,0.9,19
c1ccc2oc(SCc3cn4ccsc4n3)nc2c1,9%,-7.5%,9%,0,50µM*,1.6,0

Screening results deposited in PubChem by National Center for Advancing Translational Sciences (NCATS).
